2A firefly = Primary qHTS Assay for Foot and Mouth Disease Virus Antivirals against NCGC Sytravon and CBC Compound Libraries: Firefly Luciferase Signal | HEK cells with a luciferase reporter of 2A StopGo recoding | 0.23% of 120,000 active | AID 1745856, 2022 | Potency, µM (titrated, usually from 57.5 µM), for inactives: at the highest dose signal change, negative = less light; active = well fitted falling curve with a large enough effect; inconclusive = small, poorly fitted or top-dose-only effect; inactive = no such curve, though single readings can be large or run the other way; note: nearly all actives have a fitted effect of over 60% in size; overnight with compound
StopGo RLuc = Primary qHTS Assay for Foot and Mouth Disease Virus Antivirals against NCGC Sytravon and CBC Compound Libraries: Renilla Luciferase Signal; HEK cells with a luciferase reporter of 2A StopGo recoding; Potency, µM (highest dose often 57.5 µM), for the others: at the highest dose signal change, negative = less light; 0.32% of 120,000 active; AID 1745857, 2022; active means well fitted falling curve with a large enough effect; inconclusive means small, poorly fitted or top-dose-only effect; inactive means no such curve, though single readings can be large or run the other way; note: nearly all actives have a fitted effect of over 55% in size; overnight with compound
* hit, by the source's call; ? = inconclusive; & = joins results of further samples; [ ] = another dose, or the depositor's remark. % is set by controls: 0 for no effect and ±100 for the full control effect; potency is the fitted concentration of half-maximal effect.

SMILES | 2A firefly | StopGo RLuc
Cc1ncsc1C(=O)NCc1ccc(N2CCOCC2)nc1 | -37% | ?
CCc1ccc2oc(C(=O)Nc3ccccc3OC)cc(=O)c2c1 | -11% | -7%
COc1cccc(-c2cc(=O)[nH]c(Nc3nc(C)c4cccc(C)c4n3)n2)c1 | 30% | -5%
Cc1ccc(Nc2ncc(C(=O)N3CCN(c4cccc(Cl)c4)CC3)c3ccccc23)cc1Cl | 1% | -1%
COC(=O)c1c(NC(C)=O)sc2c(OCc3ccccc3C#N)c(Br)ccc12 | 3% | 1%
CC(C)NC(=O)CN(C)CC(O)COc1ccc(Cl)cc1 (stereo not given) | 17% | 3%
CCN(CCO)C(=S)Nc1cc(C)cc(C)c1 | -7% | 1%
Cc1ccc(OCc2ccc(-c3nc(C#N)c(N4CCN(c5cccc(Cl)c5)CC4)o3)o2)cc1 | 4% | -1%
CN(C)CCOC(=O)CCCCCCCCC(=O)OCCN(C)C | -6% | -5%
COc1ccccc1/C=C/c1nc(C#N)c(NCC(C)C)o1 | 130%&31%[activator] | 25%&17%
Cc1ccccc1-n1nnnc1C1(NC2CCCCC2)CCCC1 | 7% | 77%[activator]
CCN(Cc1ccccc1)C(=O)CCNS(=O)(=O)c1ccc2c(c1)CC(C)N2C(C)=O (stereo not given) | 4% | 82%[activator]
Cc1nc2c3c(C)c(C)n(Cc4ccncc4)c3ncn2n1 | 7% | -9%
CC(C)(C)C(=O)COC(=O)c1c(Cl)cccc1Cl | 30% | 15%
COc1cccc(OC)c1C(=O)Nc1ccc(-c2nc3ncccc3o2)cc1 | -7% | 2%
COc1ccc(-c2cn3c(n2)sc2cc(C(=O)Nc4ccc(C)c(Cl)c4)ccc23)cc1 | 66%[activator] | -3%
CN(CCOc1ccccc1Cl)C(=O)c1cc2ccccc2oc1=O | 21% | 0%
CCOC(=O)c1c(NC(=O)c2ccc(F)cc2)sc2c1CCC(CC)C2 (stereo not given) | -13% | -20%
CNC(=O)c1ccc(C(=O)O)cn1 | 10% | 12%
CCOc1ccc(CCNC(=O)CSc2nnnn2-c2ccccc2)cc1OCC | 3% | -10%
CCc1ccc(NC(=O)CC2C(=O)N(c3cccc(C)c3)C(=O)N2Cc2cccc(OC)c2)cc1 (stereo not given) | -29% | 12%
CN(Cc1ccccc1)C(=O)CCNC(=O)Nc1ccccc1 | 4% | 32%[activator]
CCc1ccc(C(=O)COC(=O)Cc2cccc3ccccc23)cc1 | 18% | 20%
O=C(CNC(=O)c1ccc(F)cc1)OCc1cc(=O)n2nc(C3CCCCC3)sc2n1 | -4% | -8%
O=C(NCc1cccc(C(F)(F)F)c1)C1CCN(C(=O)/C=C/c2ccccc2)CC1 | 40%[activator] | 13%

Single records (already shown):
CC(C)(C)C(=O)COC(=O)c1c(Cl)cccc1Cl in the list: 2A firefly: 30%; StopGo RLuc: 15%
CN(CCOc1ccccc1Cl)C(=O)c1cc2ccccc2oc1=O in the list: 2A firefly: 21%; StopGo RLuc: 0%
CN(Cc1ccccc1)C(=O)CCNC(=O)Nc1ccccc1 in the list: 2A firefly: 4%; StopGo RLuc: 32%[activator]

(next part)
SMILES | 2A firefly | StopGo RLuc
CC1=C(C(=O)Nc2cccnc2)C(c2ccc(F)cc2)n2nc(-c3cccc(C)c3)nc2N1 (stereo not given) | -4% | -14%
COc1ccc(CCNC(=O)c2cc(-c3ccc(C)cc3)nc3n[nH]c(-c4ccc(F)cc4)c23)cc1OC | 15% | 10%
O=C(O)CCNS(=O)(=O)c1ccccc1Cl | 3% | 9%
Cc1cccc(-c2ocnc2C(=O)Nc2ccc(C)cc2C)c1 | 12% | 1%
COc1ccc(CCNC(=O)Cn2c(C)c3cnn(-c4ccccc4)c(=O)c3c2C)cc1OC | -3% | -4%
COc1ccc(NC(=O)CSc2nc(-c3ccc(OC)cc3)[nH]c2-c2ccc(OC)cc2)cc1 | -14% | 7%
Nc1ccccc1C(=O)NCCc1ccccc1 | -67% | 13%
CC(C)CC(NC(=O)c1ccn(C)c(=O)c1)c1ccccc1 (stereo not given) | 7% | 10%
COc1ccc2c(C)c(CC(=O)NCCc3ccc(S(N)(=O)=O)cc3)c(=O)oc2c1 | 10% | 5%
COc1ccc(Cl)cc1-c1nc(SCC(=O)NC(=O)NC(C)(C)C)n[nH]1 | 8% | 135%[activator]
O=C(/C(Cl)=C/N1CCN(C(c2ccccc2)c2ccccc2)CC1)C(F)(F)F | -10% | -10%
O=C(C1=C(O)C(=O)N(CCc2ccccc2)C1c1ccc(Br)cc1)c1cccs1 (stereo not given) | 24% | 70%[activator]
COc1ccc(C(=O)Nc2ccc(Br)cc2C)cc1Cl | 38%[activator] | 8%
Cc1ccc(Nc2nnc(-c3ccc(C)c(S(N)(=O)=O)c3)c3ccccc23)cc1 | 13% | 284%[activator]
O=C(N/N=C(/c1ccccc1)c1ccncc1)C1CC1 | 10% | -4%
NC(N)=NS(=O)(=O)c1ccc(N)cc1 | -16% | -8%
COc1ccc(-c2nc3scc(CCNS(=O)(=O)c4ccc(F)c(C(F)(F)F)c4)n3n2)cc1OC | 0% | 173%[activator]
CCn1cc(Br)c(C(=O)Nc2cc(C)ccc2F)n1 | 39%[activator] | 11%
COc1ccc(C(=O)Nc2oc3ccccc3c(=O)c2-c2cccc(C)c2)cc1 | 23% | 18%
COc1cc(NC(=O)n2ncc3cc(Cl)ccc32)cc(OC)c1OC | 50%[activator] | 9%
O=C(COc1ccc(-c2nnc(N3CCCCC3)c3ccccc23)cc1)N1CCCCC1 | -12% | -18%
COc1ccc(NC(=O)CSc2nc3ccccc3n2CC(=O)NCc2ccc(F)cc2)cc1 | -7% | 10%
CCCC(=O)n1nc(NCc2ccccc2)nc1NCc1ccccc1 | 5% | 0%
N#Cc1c(N)sc2c1CCC2 | -11% | 3%
COCCn1c(=O)c2c(nc(-n3nc(C)cc3C)n2CCC(C)C)n(C)c1=O | 0% | 13%

In another format: results already given
SMILES,2A firefly,StopGo RLuc
COc1ccc2c(C)c(CC(=O)NCCc3ccc(S(N)(=O)=O)cc3)c(=O)oc2c1,10%,5%
COc1ccc(Cl)cc1-c1nc(SCC(=O)NC(=O)NC(C)(C)C)n[nH]1,8%,135%[activator]

More structures
SMILES | 2A firefly | StopGo RLuc
O=C(NC1CCCc2ccccc21)C1CCC1 (stereo not given) | 2% | 8%
CCN(C(=O)c1cn(CC(C)C)c(=O)c2cc(OC)c(OC)cc12)c1cccc(C)c1 | -10% | 35%[activator]
CCC(=O)N1CCc2cc(Br)cc(S(=O)(=O)CCC(=O)N3CCN(c4cc(C)ccc4C)CC3)c21 | -14% | 1%
Cc1cccc(NC(=O)Cn2nc(-c3ccccc3)c3c(c2=O)CCCC3)c1C | 6% | -3%
COc1ccc(C)cc1NC(=O)c1cc(S(=O)(=O)N2CCN(c3cccc(C)c3C)CC2)ccc1F | -8% | 8%
CCCN1C(=O)C2(c3ccccc31)c1c(oc3ccc(F)cc3c1=O)C(=O)N2CCCOC(C)C (stereo not given) | -15% | -23%
CC(OC(=O)c1cccc(-n2cnnn2)c1)C(=O)N(C)c1ccccc1 (stereo not given) | 4% | -2%
Cc1ccccc1CSc1nc2ccsc2c(=O)n1CCC(C)C | -19% | 4%
CC(=O)N1CCOc2cc(S(=O)(=O)NC(C)c3ccccc3)c(Cl)cc21 (stereo not given) | 18% | 239%[activator]
Nc1nnnn1NCc1ccc(-c2ccc(Cl)cc2)o1 | 110%[activator] | 90%[activator]
CCn1c(SCc2nc(-c3ccccc3OC)no2)nnc1-c1ccco1 | 3% | -4%
CCOC(=O)c1c(NC(=O)c2cc3nc(-c4ccc(OC)cc4)cc(C(F)(F)F)n3n2)sc2c1CCC(C)C2 (stereo not given) | -5% | 7%
COc1ccc(Cl)cc1NC(=O)c1cc(=O)n2c(nc3ccccc32)s1 | 23% | 11%
CCOc1ccc(CNC(=O)Cn2c(=O)c3cccn3c3ccc(F)cc32)cc1 | 14% | 3%
Cc1ccc(C)c(-c2csc(Nc3ccc(S(N)(=O)=O)cc3)n2)c1 | ? | 18µM*
CCC(=O)N1CCCC(CN2CCN(c3ccccn3)CC2)C1 (stereo not given) | 51%[activator] | 5%
Cc1c(-c2nc(-c3ccc4c(c3)OCO4)no2)nnn1-c1ccc(Br)cc1F | 16% | -9%
Cc1nccc(-c2cccc(NC(=O)c3nccnc3N)c2)n1 | 48%[activator] | 15%
COc1ccccc1N1CCN(c2ccc3cc(S(=O)(=O)N4CCCCC4)ccc3n2)CC1 | -6% | 8%
O=C(NC1CCCC1)c1ccc2ncsc2c1 | 82%[activator] | 11%
Cc1ccc(CN2CCCn3nc(C(=O)NCCC(C)C)cc3C2=O)cc1 | 0% | 16%
CC(C)(C)OC(=O)C(C)(C(=O)OC(C)(C)C)c1nc(C(C)(C(=O)OC(C)(C)C)C(=O)OC(C)(C)C)nc(C(C)(C(=O)OC(C)(C)C)C(=O)OC(C)(C)C)n1 | 18% | -9%
CN1CCN(S(=O)(=O)c2ccc(Cl)c3ccccc23)CC1 | -14% | 73%[activator]
COc1ccc(N(Cc2nnc3n2CCCCC3)C(=O)Nc2ccc(Cl)cc2)cc1Cl | -7% | -4%
COc1ccc(N2CCN(C(CNS(=O)(=O)c3ccc(OC)c(C)c3)c3ccco3)CC2)cc1 (stereo not given) | -22% | 36%[activator]

A second format for part of the listing above.
mol,2A firefly,StopGo RLuc
CCN(CCO)C(=S)Nc1cc(C)cc(C)c1,-7%,1%
Cc1ccc(OCc2ccc(-c3nc(C#N)c(N4CCN(c5cccc(Cl)c5)CC4)o3)o2)cc1,4%,-1%
CN(C)CCOC(=O)CCCCCCCCC(=O)OCCN(C)C,-6%,-5%
COc1ccccc1/C=C/c1nc(C#N)c(NCC(C)C)o1,130%&31%[activator],25%&17%

Going on with the list:
SMILES | 2A firefly | StopGo RLuc
O=C(COc1ccccc1)Nc1ccc2nc(SCC(=O)N3CCc4ccccc43)sc2c1 | 3% | -12%
COC(=O)C1CCN(c2nc3ccccc3nc2C(C#N)C(=O)NCc2ccccc2)CC1 (stereo not given) | -5% | 6%
CC(NC(=O)c1ccc(CS(C)(=O)=O)cc1)c1ccc(F)cc1 (stereo not given) | -15% | -5%
O=C(NC1CCCCC1)c1cc(Nc2ccccc2)nc2ccccc12 | -14% | -3%
COc1cccc(C2CC(=O)Nc3nc(N)sc32)c1OC(C)C (stereo not given) | 6% | -4%
O=C(CSc1nnc(-c2ccncc2)n1-c1ccc(Cl)cc1)NCc1ccc2c(c1)OCO2 | -2% | -6%
Cc1nn(CC(=O)N2CCC(C)CC2)c(=O)c2cc3occc3n12 | -4% | -10%
CCc1nc2ccccc2c(C(=O)OCC(=O)N(C(C)C)C(C)C)c1C | ? | -8%
Cc1ccc(CN(C(=O)c2ccc(OCC(C)C)cc2)c2ccccn2)o1 | 217%[activator] | 113%[activator]
COc1ccc(COC(=O)C2=C(C)NC(=O)CC2c2cc3c(cc2Br)OCO3)cc1 (stereo not given) | -17% | -2%
O=C(Nc1ccc2ccccc2c1)C1=C(c2ccccc2)S(=O)(=O)CCO1 | -16% | 0%
COC(=O)c1cc(NC(=O)c2ccc3c(c2)CCC3)cc(C(=O)OC)c1 | 9% | 15%
CN(c1ncnc2c1c(-c1ccccc1)cn2-c1ccc(F)cc1)C1CCCCC1 | 4% | 1%
Cc1cc(C)n(-c2nc3cc(Cl)ccc3nc2N2CCN(c3cccc(C)c3C)CC2)n1 | -15% | -12%
Cn1c(=O)cc(OCC(=O)N2CCN(c3ccc(F)cc3)CC2)c2ccccc21 | -5% | -1%
Cc1ccc(C)c(CN2C(=O)c3ccccc3S(=O)(=O)c3ccc(C(=O)N4CCCCC4)cc32)c1 | 0% | 27%
O=C(N1CCCCC1)C12CC3CC(CC(Cl)(C3)C1)C2 | 14% | -9%
CCN(CC)CCC12CC3CC(CC(C3)C1)C2 | 3% | 1%
CCOc1ccc(NC(=O)CN2CCN(CC(=O)Nc3ccc(F)cc3F)CC2)cc1 | 50%[activator] | -11%
O=C(Nc1ccccc1C(=O)O)c1cccc(S(=O)(=O)N2CCCC2)c1 | 0% | 51%[activator]
CCc1ccc2occ(CC(=O)NCc3ccccc3)c2c1 | 10% | -19%
Cc1c(C)n(Cc2ccncc2)c2ncn3ncnc3c12 | -1% | -6%
CC(C)(C)c1ccccc1NC(=O)CSc1nc(-c2cccs2)cc(C(F)(F)F)n1 | -8% | -8%
COc1ccccc1NC(=O)CSc1nc2nccnc2c(=O)n1CCc1c[nH]c2ccccc12 | 29% | -2%
Cc1ccc(C(=O)/C=C/c2cc(C)ccc2C)cc1 | 10% | 3%
CSc1ccccc1NC(=O)Nc1ccccc1Cl | 84%[activator] | 48%[activator]
COCCNC(=S)N/N=C(/C)c1cc(OC)c(OC)c(OC)c1 | 8% | -9%[1.06 µM]

Bioassay records deposited in PubChem BioAssay by National Center for Advancing Translational Sciences (NCATS).
